ClpP mod = qHTS Assay for Activators of ClpP; purified B. subtilis ClpP, FRET peptide cleavage, 20 min; Potency, µM (top dose mostly 57.5 µM), for the others: at the top dose activity change, negative = active; hit rate 1.9% among 340,000; AID 651965, 2013; active = well fitted falling curve with a large enough effect; inconclusive = small, poorly fitted or top-dose-only effect; inactive = no such curve, though single readings can be large or run the other way; further: the source files actives as falling curves though it sought activators and does not explain the sign; nearly all actives have a fitted effect of over 65% in size; many hits overshoot -100%
Target sequence (P80244 whole entry, looked up): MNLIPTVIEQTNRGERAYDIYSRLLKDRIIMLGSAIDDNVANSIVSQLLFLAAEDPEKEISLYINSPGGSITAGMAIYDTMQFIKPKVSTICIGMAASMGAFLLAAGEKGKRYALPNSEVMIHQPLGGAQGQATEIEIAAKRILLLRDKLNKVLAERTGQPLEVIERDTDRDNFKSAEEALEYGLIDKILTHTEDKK
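ClpP 10 microg/mL final, pH 8 Tris/KCl buffer with BSA, glycerol, Tween-20; compound pinned in; FRET-FV substrate; RT 20 min; Ex320/Em430; ΔFRET vs ADEP 5.8 microM, DMSO, no enzyme.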
* marks the source's active call; other numbers are inactive results; ? = inconclusive. Potency means the concentration at half of the fitted maximal effect.

SMILES | ClpP mod
CCOc1ccc(N2CC(NC(=O)c3ccco3)CC2=O)cc1 (centres undefined) | 0.2%
CCCOc1ccc(CN(C(=O)c2nc(SC(C)C)ncc2Cl)C2CCS(=O)(=O)C2)cc1 (centres undefined) | 2.3%
CCc1cccc(NC(=O)Cn2c(=O)n(-c3cccc(Cl)c3)c(=O)c3c2c2cc(C)ccc2n3C)c1 | -16%
COc1ccc(CNC(=O)c2ccc(CNS(=O)(=O)c3ccc(F)cc3)cc2)cc1 | 0.6%
CCOc1ccc(NCc2cccn2-c2nnc(N3CCC(C(=O)NCC(C)c4ccccc4)CC3)s2)cc1 (centres undefined) | -4.2%
Cc1c(C(=O)N(C)C)sc2c1c(=O)n(-c1ccc(Cl)c(Cl)c1)c(=O)n2Cc1ccc(F)cc1 | -0.8%
Cc1ccccc1NC(=O)CSc1nnc(COc2ccc(Cl)cc2)o1 | -0.2%
O=C(NC1CCCC1)c1ccc2c(c1)N(Cc1ccc(F)cc1)C(=O)c1ccccc1S2 | -1.5%
COc1ccc(C)cc1NC(=O)N(Cc1ccc(C)o1)C1CCN(C(C)=O)CC1 | -0.7%
Cc1ccc(Cn2c(=O)c3cccnc3n(Cc3ccc(F)cc3)c2=O)cc1 | ?
O=C(Cn1ccn(-c2ccc(F)cc2)c(=O)c1=O)Nc1ccc(F)cc1 | -15%
COc1ccccc1CNC(=O)CCCc1nnc2n(CC(C)C)c(=O)c3sccc3n12 | -4.6%
COc1ccc(C)c2sc(NC(=O)c3ccc(S(=O)(=O)N(C)C)cc3)nc12 | 4.7%
Cc1nnc(NC(=O)CSc2nccn2-c2cccc(Cl)c2)s1 | -2.6%
CCOCCc1nn2c(=O)cc(COC(=O)C(CC)c3ccccc3)nc2s1 (centres undefined) | -4.3%
Cc1nc2ccn(Cc3ccccc3)c(=O)c2cc1C(=O)NCc1ccccc1F | 4.3%
CCC(Cn1nnc2ccccc2c1=O)NC(=O)Nc1cc(OC)cc(OC)c1 (centres undefined) | -0.8%
O=C(Nc1ccc(Cl)c(C(F)(F)F)c1)c1nc2ccccc2nc1N1CCCCC1 | -0.2%
O=C(CSc1nc2ncccc2o1)Nc1ccc(Cl)cc1F | 6.1%
Cc1ccc(S(=O)(=O)C(CNC(=O)c2ccc(F)c(F)c2)c2ccco2)cc1 (centres undefined) | 0.1%

Some of the entries above, reformatted.
COc1ccc(CNC(=O)c2ccc(CNS(=O)(=O)c3ccc(F)cc3)cc2)cc1
  ClpP mod: 0.6%
CCOc1ccc(NCc2cccn2-c2nnc(N3CCC(C(=O)NCC(C)c4ccccc4)CC3)s2)cc1 (centres undefined)
  ClpP mod: -4.2%
Cc1c(C(=O)N(C)C)sc2c1c(=O)n(-c1ccc(Cl)c(Cl)c1)c(=O)n2Cc1ccc(F)cc1
  ClpP mod: -0.8%
Cc1ccccc1NC(=O)CSc1nnc(COc2ccc(Cl)cc2)o1
  ClpP mod: -0.2%

More compounds.
SMILES | ClpP mod
O=C(Cn1c(SCc2ccccc2F)nc2cccnc21)Nc1ccc(F)c(Cl)c1 | ?
CCCn1c(=N)c(C(=O)NCc2cccnc2)cc2c(=O)n3cccc(C)c3nc21 | -2.4%
CCOC(=O)N1CCN(C(=O)C[C@@H]2C[C@@]3(C(=O)OCC)CCC=C3N(Cc3ccco3)C2=O)CC1 | 1.4%
O=[N+]([O-])c1cc(-c2nc(-c3ccccn3)no2)ccc1NCc1ccccc1 | 0.0%
CCc1cccc(NC(=O)CCNS(=O)(=O)c2ccc3c(c2)CCN3C(C)=O)c1 | 0.6%
Cc1c(Cl)cccc1-n1ncc(C(=O)Nc2ccc(Br)cc2F)c1C1CCNCC1 | -0.1%
Cc1ccc(OCCSc2nc3ccccc3n2CC(=O)N2CCCCC2)cc1C | -0.9%
CN(C)c1ccc(N=Cc2ccncc2)cc1 | 0.8%
Cc1ccc(N2CC3=C(C2=O)C(c2ccc(Br)cc2)NC(=O)N3C)cc1 (centres undefined) | -5.0%
Cc1ccc(NC(=O)CSc2nc3c(oc4ccccc43)c(=O)n2-c2ccc(F)cc2)c(C)c1 | -5.8%
Cc1nn(C)c(C)c1S(=O)(=O)N(CC(=O)NCCc1ccccc1)c1ccc(C(C)C)cc1 | 0.1%
COc1ccccc1Cc1c(-c2cccc(Cl)c2)nc2c(C)cc(Br)cn12 | -2.9%
Cc1c(-c2nc(-c3ccccc3F)no2)nnn1-c1cc(F)ccc1F | 0.0%
CCC1Oc2ccccc2N(CC(=O)NCc2ccc(C)cc2)C1=O (centres undefined) | 1.9%
CCCn1c(SCc2nc(-c3ccccc3C)no2)nnc1-c1ccc(Cl)cc1 | -1.5%
Cc1nn(C(=O)c2ccc(Cl)cc2)c(C)c1S(=O)(=O)N1CCOCC1 | -1.8%
COc1cccc(N2CC(NC(=O)c3cc4ccccc4o3)CC2=O)c1 (centres undefined) | -10%
COc1ccc(C(=O)NCCc2sc(-c3ccc(F)cc3)nc2C)cc1OC | -12%
COc1ccccc1Nc1nc(-c2ccccc2F)nc2ccccc12 | -2.3%
COc1cc(CN2CCN(S(=O)(=O)c3ccccc3)CC2)cc(OC)c1O | -0.3%
CCOC(=O)c1cc(-c2ccc(OC)cc2)n(CCC(=O)Nc2cccc(C)c2C)c1C | 4.7%
COc1ccc(CN(Cc2ccco2)c2cnc(S(C)(=O)=O)nc2C(=O)Nc2ccc(C)c(C)c2)cc1 | -3.4%
COC(=O)c1cc(C)nc2c1c(=O)nc(SCc1ccccc1C)n2C1CC1 | -2.6%
COc1ccc(NC(=O)CC2C(=O)N(c3ccccc3)C(=O)N2CCC2=CCCCC2)cc1 (centres undefined) | -1.3%
Cc1ccc(C)c(N2CCN(S(=O)(=O)c3ccc4c(c3)n(C)c(=O)c(=O)n4C)CC2)c1 | 0.6%
Cc1c(C(=O)NCc2ccccc2Br)oc2ccc3c(c12)C(=O)CC(C)(C)O3 | -2.7%
Cc1cn2c(=O)cc(COc3ccc(NC(=O)c4ccccc4C)cc3)nc2s1 | -2.3%
CCCOC(=O)c1c(NC(=O)c2nc3ncccn3n2)sc(C(N)=O)c1C | ?
CCOC(=O)C1=C(CN2CCCCC2)NC(=O)NC1c1ccc(OC)cc1 (centres undefined) | -1.5%
O=C1C(c2ccc(F)cc2)N(CCc2ccccc2)C(=O)CN1C1CCCCC1 (centres undefined) | 1.7%
CCOc1ccc(NS(=O)(=O)c2cc(Br)cc3c2N(C(=O)C2CC2)CC3)cc1 | 0.3%
Cc1ccc(Cn2c(CNS(=O)(=O)c3ccc(Cl)s3)nc3cccnc32)cc1 | 2.4%
COc1ccc(N2CCN(C(=O)Cn3cnc4nc5c(cc4c3=O)CCCC5)CC2)cc1 | -4.1%
COc1cccc(-c2nn(C)c3sc(C(=O)NCCc4cccc(C)c4)cc23)c1 | 3.6%
CCOC(=O)c1ccc(NC(=O)C(CC)Sc2nc3ncccc3o2)cc1 (centres undefined) | 36%
COc1cccc(CNC(=O)C2CCN(c3nnc(-n4c(C)ccc4C)s3)CC2)c1 | 9.1%
Cc1ccc(CCNC(=O)c2cc(C)nc3c2c(C)nn3-c2ccc(C)cc2)cc1 | 70%
COC(=O)c1cccc(NC(=O)c2nsc3ccccc23)c1 | 4.7%
COc1ccc(Nc2nnc(-c3cc4cc(Cl)ccc4oc3=O)s2)cc1 | -0.1%
COc1ccc(Cl)cc1NC(=O)Cn1nnc(C(=O)NCc2cccs2)c1N | -1.3%
COc1ccc(CCNC(=O)C2CCN(c3nc4ccccc4nc3C(F)(F)F)CC2)c(OC)c1 | -0.9%
Cc1ccc(CNC(=O)C2CCN(S(=O)(=O)c3ccc(F)cc3)CC2)cc1 | -0.4%
CC1(C(=O)Nc2ccc3c(c2)OCCO3)CSCC(=O)N1CCc1ccccc1F (centres undefined) | -1.4%
COc1cccc(OCC(=O)Nc2nnc3n2CCS3)c1 | -1.0%
CC(=O)c1ccc(NC(=O)c2cnn3c2NC(=C2CC2)C=C3C(F)F)cc1 | -5.1%
COc1ccc(C2C(=O)N(C3CCCCCC3)CC(=O)N2CCc2ccc(OC)c(OC)c2)cc1 (centres undefined) | 1.5%
Cc1cc(C)c(NC(=O)c2cc(CN3CCOCC3)on2)c(C)c1 | -1.4%
O=C(Cn1ccc2cc(S(=O)(=O)N3CCCC3)ccc21)NCc1ccccc1Cl | 14%
COc1ccccc1CNC(=O)C1CCN(Cc2nc(-c3ccc(OC)c(OC)c3)oc2C)CC1 | -13%
COc1cccc(N2CC(NC(=O)/C=C\c3ccccc3)CC2=O)c1 (centres undefined) | -0.7%
CCOc1ccc(NC(=O)C(C)Sc2nnc3cc(C)c4ccccc4n23)cc1 (centres undefined) | -1.4%
COc1cccc(OCCSc2nc3ccccc3n2CC(=O)N2CCOCC2)c1 | 0.0%
COC(=O)C1=C(C(=O)OC)[C@]2([C@H]3C/C=C\CN[C@@H](Cc4ccccc4)C(=O)N3Cc3ccccc3)C=C[C@H]1O2 | 0.4%
COc1ccc(S(=O)(=O)NCc2ccc3c(c2)CCN3C(C)=O)cc1OC | -1.1%
COc1ccccc1C(=O)Nc1ccccc1OCc1cc(=O)n2cc(C)sc2n1 | -0.5%
CCOc1ccccc1CNC(=O)CN(c1ccc(C)cc1)S(=O)(=O)N(C)C | 0.0%
Cc1noc(/C=C/N(C)C)c1S(=O)(=O)N1CCCC(C(=O)Nc2cccc(F)c2)C1 (centres undefined) | 3.8%
CN1C(=O)Cc2cc(S(=O)(=O)CCC(=O)N3CCN(c4cccc(Cl)c4)CC3)ccc21 | -4.1%
Cc1cc(C)c(-c2csc(-c3cc4ccccc4oc3=O)n2)cc1C | -14%
O=C(NC1CCCCC1)c1ccc2c(c1)sc1nc(-c3ccccc3)cn12 | -27%

2 entries drawn at random from the list so far:
SMILES | ClpP mod
Cc1ccc(CNC(=O)C2CCN(S(=O)(=O)c3ccc(F)cc3)CC2)cc1 | -0.4%
COc1ccc(C2C(=O)N(C3CCCCCC3)CC(=O)N2CCc2ccc(OC)c(OC)c2)cc1 (centres undefined) | 1.5%

Following part.
SMILES | ClpP mod
CCCCNc1cc(N2CCN(C3CCCCC3)CC2)c2noc3c2c1C(=O)c1ccccc1-3 | 0.2%
O=C(O)c1ccc(N2C(=O)c3[nH]nc(-c4ccccc4)c3C2c2cccc(F)c2)cc1 (centres undefined) | 0.7%
Cc1ccc(C(=O)Nc2nnc(S(=O)(=O)N(C)Cc3ccc(F)cc3)s2)cc1 | -4.4%
COc1ccc(NC(=O)Nc2nnc(N(CC(C)C)CC(C)C)s2)c(OC)c1 | 1.5%
Cc1ccc(-c2nnn3c2nc(NCC(C)c2ccccc2)c2ccccc23)cc1 (centres undefined) | -18%
Cc1cccc(-n2c(C)nc3cc(C(=O)NCCC4=CCCCC4)ccc32)c1 | -0.8%
CCCCCCCCN1C(=O)[C@H](CC(=O)NCCCOCCCC)C[C@@]2(C(=O)OC)CCCCC=C12 | 1.3%
CCOc1cc2[nH]c(=O)n(CCCCC(=O)N3CCN(c4ccc(OC)cc4)CC3)c(=O)c2cc1OCC | -2.8%
CC1=C(C(=O)Nc2ccccc2)C(c2cccs2)n2nc(SCc3ccccc3F)nc2N1 (centres undefined) | -1.2%
CCOC(=O)c1oc2c(c1C)-c1nn(Cc3ccc(Cl)cc3)cc1CC2 | 4.5%
CC(C)C(NS(=O)(=O)c1cccc2cccnc12)C(=O)Nc1ccc(OC(F)(F)F)cc1 (centres undefined) | 0.4%
COc1cccc(-c2cn3c(n2)sc2cc(C(=O)NCCc4ccc(OC)c(OC)c4)ccc23)c1 | 4.6%
Fc1ccc(-n2ncc3c(NCCCn4ccnc4)ncnc32)cc1 | 4.2%
COc1cc2cc(C(=O)NC(C)c3cccc4ccccc34)c(N)nc2cc1OC (centres undefined) | 5.1%
Cn1c(=O)c2c(SCC(=O)N3CCc4ccccc43)nc(-c3ccccc3Cl)nc2n(C)c1=O | 0.3%
CCOC(=O)c1c(NC(=O)c2ccc(C)cc2)sc2c1CCCCC2 | -0.3%
Cc1ccc(-n2c(=O)c3c(cnn3C)n(CC(=O)Nc3cccc(C)c3)c2=O)cc1 | -3.7%
CCc1cccc(NC(=O)C(Cc2ccccc2)n2cccc2)c1 (centres undefined) | -1.3%
COc1ccc(CCNC(=O)CS(=O)(=O)Cc2nc(-c3cccc(Cl)c3)oc2C)cc1OC | -4.6%
CCOc1ccc(C2C(C(=O)Nc3ccccc3OC)=C(C)Nc3c(C(=O)Nc4cccc(C)c4)cnn32)cc1 (centres undefined) | ?
CCCN(C(=O)C1CCN(S(=O)(=O)c2c(C)noc2/C=C/c2ccc(C)cc2)CC1)c1ccccc1F | -12%
Cc1cc(C)cc(-n2c(SCC(=O)Nc3cccc(F)c3)nc3c([nH]c4ccccc43)c2=O)c1 | 44%
CCC(=O)N1CCc2cc(S(=O)(=O)NC(C(=O)NCc3ccccc3Cl)C(C)C)ccc21 (centres undefined) | 2.9%
COc1ccc(CCNC(=O)c2cc3cc(Cl)ccc3nc2N)cc1OC | ?
COc1ccc(-n2c(=O)c3c4c(sc3n3c(SCCC(C)C)nnc23)COC(C(C)C)C4)cc1 (centres undefined) | 1.0%

Two of the compounds above, with each value named.
COc1ccc(CCNC(=O)c2cc3cc(Cl)ccc3nc2N)cc1OC
  ClpP mod: ?

COc1ccc(-n2c(=O)c3c4c(sc3n3c(SCCC(C)C)nnc23)COC(C(C)C)C4)cc1 (centres undefined)
  ClpP mod: 1.0%

Screening data deposited in PubChem BioAssay by National Center for Advancing Translational Sciences (NCATS).

Some of the compounds tested, so the mix of outcomes need not match the whole.
